D2 potentiator = Beta-Arrestin HTS for Positive Allosteric Modulators of the Human D2 Dopamine Receptor: Potentiators | potentiation, % (concentration not given with the values) | D(2) dopamine receptor (Homo sapiens), P14416 | DiscoveRx D2 beta-arrestin cells, luminescence, 90 min; 100% = 57 uM dopamine signal | 360,000 tested, 0.23% active; active = potentiation of 50% or more; inconclusive = 30% to 50%; inactive = 30% or less;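 further: compound concentration not given in the record; tested on top of an EC20 dose of dopamine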
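PathHunter beta-arrestin assay in DiscoveRx D2 cells. Compounds were added with an EC20 of dopamine (50 nM final) for 90 min at 37 deg C. Luminescence was read 1 h after detection reagent, with 57 uM dopamine as the EC100 control.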
Six1-Eya2 inh = qHTS Assay for Inhibitors of the Six1/Eya2 Interaction; Homeobox protein SIX1 (Homo sapiens) + Protein phosphatase EYA2 (Homo sapiens), …; AlphaScreen GST-Six1/His-Eya2 binding, biochemical; active compounds read low; control for the full effect not named in the record; activity change, % (no concentration beside the values); 360,000 tested, 0.56% active; AID 651725, 2012; in the data active = activity change below about -65%; inconclusive = about -30% to -65%; inactive = above about -30%; further: on the % scale 0 is the no-effect control and ±100 the full control effect
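GST-Six1 + His-Eya2 (5X stock: 250/500 nM); Tris pH 8.0, 300 mM NaCl, 0.05% BSA, 0.02% Tween 20; GSH donor/Ni acceptor beads; 1 h 37 °C dark; AlphaScreen readout.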
TRPV1 PAM = HTS Assay for Compounds that Act as Potentiators of the Vanilloid Receptor 1. Transient receptor potential cation channel subfamily V member 1 (Homo sapiens), Q8NER1. TRPV1-expressing cells, Fluo-8 calcium influx, capsaicin EC20 potentiation; host cell line not named in the record; control for the full effect not named in the record. potentiation, % at 8.33 µM. 320,000 tested, 0.02% active; active means potentiation above 80%; inconclusive means 30% to 80%; inactive means below 30%; further: 0% is about no effect
Target sequence (Q8NER1 whole entry, looked up): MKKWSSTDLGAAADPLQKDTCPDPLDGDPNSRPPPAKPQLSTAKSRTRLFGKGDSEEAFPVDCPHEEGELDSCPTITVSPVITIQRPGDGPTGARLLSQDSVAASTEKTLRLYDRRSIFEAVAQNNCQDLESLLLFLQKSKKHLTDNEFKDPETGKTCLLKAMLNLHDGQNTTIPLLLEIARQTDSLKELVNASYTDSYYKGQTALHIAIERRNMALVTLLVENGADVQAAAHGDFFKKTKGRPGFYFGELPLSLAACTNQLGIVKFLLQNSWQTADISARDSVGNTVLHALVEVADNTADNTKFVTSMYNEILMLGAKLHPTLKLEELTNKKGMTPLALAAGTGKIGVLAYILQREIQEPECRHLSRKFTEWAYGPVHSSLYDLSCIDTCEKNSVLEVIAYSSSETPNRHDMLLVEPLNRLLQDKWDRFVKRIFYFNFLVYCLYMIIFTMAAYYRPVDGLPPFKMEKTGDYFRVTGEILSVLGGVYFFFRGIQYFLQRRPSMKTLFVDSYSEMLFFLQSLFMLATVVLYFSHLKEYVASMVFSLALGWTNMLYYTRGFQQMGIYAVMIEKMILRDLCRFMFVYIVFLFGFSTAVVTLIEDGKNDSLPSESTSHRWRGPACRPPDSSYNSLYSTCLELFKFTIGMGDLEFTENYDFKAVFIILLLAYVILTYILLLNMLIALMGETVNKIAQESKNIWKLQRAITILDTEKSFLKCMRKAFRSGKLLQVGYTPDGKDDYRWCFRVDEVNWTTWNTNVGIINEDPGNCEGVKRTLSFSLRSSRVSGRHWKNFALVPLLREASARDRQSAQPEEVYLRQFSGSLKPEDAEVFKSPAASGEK
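TRPV1-expressing cells were cultured overnight at 35.5C and loaded with Fluo-8 calcium dye for 40 to 90 min at room temperature. After a 10 s baseline, compound was added and calcium influx was read kinetically for 3 min (ex 480/em 520 nm).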
CtBP-E1A blk = qHTS Assay for Inhibitors of the CtBP/E1A Interaction; activity change, % (test concentration not listed); 340,000 tested, 0.49% active; AID 651724, 2012; AlphaScreen GST-E1A/His-CtBP binding, 1536-well; active compounds read low; control for the full effect not named in the record; in the data active means activity change below about -65%; inconclusive means about -30% to -65%; inactive means above about -30%; further: on the % scale 0 is the no-effect control and ±100 the full control effect
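GST-E1A and His-tagged CtBP (125 nM each as 5X stock) were preincubated with pin-transferred compound for 2 h at 37 °C in the dark, then glutathione donor and nickel acceptor beads were added for 1 h before AlphaScreen reading.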
PINK1 modulator = A Quantitative High throughput Screen to Identify Chemical Modulators of PINK1 Expression; PINK1 immunofluorescence, high-content cytometry, 24 h; Potency, µM (titrated, usually from 76.6 µM), for inactives: top-dose activation (PINK1 increase), usual class: activators; 410,000 tested, 0.2% active; AID 624263, 2012; active = well fitted activation curve with a large enough effect; inconclusive = small, poorly fitted or top-dose-only effect; inactive = flat fitted curve, though single readings scatter; cell line not stated here;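 further: potency means the concentration at half of the fitted maximal effect; % of control where 0% means no effect; nearly all actives have a fitted effect of over 65% in size; a mitochondrial uncoupler was the plate control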
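Measures PINK1 amount and localization on or inside mitochondria by immunofluorescence. Stable cells get compounds at 5 concentrations for 24 hours before fixation and staining; CCCP controls included.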
Sfp PPTase inh = qHTS Assay for Inhibitors of Bacillus subtilis Sfp phosphopantetheinyl transferase (PPTase); Biochemical Sfp PPTase activity, qHTS; Potency, µM, for inactives: max response, negative = inhibition, actives largely listed as inhibitors; AID 1490, 2009; 310,000 tested, 3.5% active; 4'-phosphopantetheinyl transferase ffp (Bacillus subtilis), Q9F4F7; active means well fitted inhibition curve with a large enough effect; inconclusive means small, poorly fitted or top-dose-only effect, or another doubt; inactive means no such curve, though single readings can be large or run the other way;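 further: the enzyme is Sfp with the accession as filed and its product quenches rhodamine fluorescence; potency means the concentration at half of the fitted maximal effect; 0% = enzyme reaction without inhibitor and -100% = no enzyme wells; top concentration of the series not given in the record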
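Compounds were incubated with enzyme (final 15 nM) for 15 min at room temperature before substrate addition started the reaction. Fluorescence at 525 nm excitation, 598 nm emission was recorded immediately and after 30 minutes.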
D2 agonist = Beta-Arrestin HTS for Positive Allosteric Modulators of the Human D2 Dopamine Receptor: Agonists; D(2) dopamine receptor (Homo sapiens), P14416; AID 624465, 2012; DiscoveRx PathHunter D2 beta-arrestin, luminescence, 90 min; 100% = 57 uM dopamine signal; activation, % (concentration not given with the values); 360,000 tested, 0.084% active; in the data active = activation above about 40%; inconclusive = about 15% to 40%; inactive = below about 15%; further: compound concentration not given in the record; the text of the record calls up to 30% inactive
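DiscoveRx PathHunter D2 beta-arrestin cells (2,100/well) attached overnight, then compound-stimulated 90 min at 37 C in HBSS/10 mM HEPES/0.1% Tween-20 buffer; beta-galactosidase complementation read by luminescence after 1 h at ambient temperature. Dopamine 57 uM final (EC100) as control.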
Starred values were filed as active, the others as inactive; ? = inconclusive; . = not tested or not shown; [ ] = another dose, or the depositor's remark. This is a random part of the collection; any-hit rate near 3.7%.

SMILES	D2 potentiator	Six1-Eya2 inh	TRPV1 PAM	CtBP-E1A blk	PINK1 modulator	Sfp PPTase inh	D2 agonist
O=C(Nc1ccccc1C(=O)NCCc1ccc(O)cc1)c1ccco1	-3	-2	-9	11	-0.5%	6%	-0.2
COc1cccc(-n2c(N)c(-c3nc4ccccc4[nH]3)sc2=S)c1	-3	-12	-15	-6	0.9%	?	-4.4
CC1(c2ccccc2)NC(=O)N(CC(=O)Nc2ccc3c(c2)CCC3)C1=O (stereo not drawn)	-11	-3	.	.	1.1%	.	-1.8
COc1cccc2c(=O)n(CC(=O)Nc3ccc(F)cc3)ccc12	-5	3	4	-23	3.3%	-2%	-4.2
S=C(NCc1ccccc1)Nc1cccc(Cl)c1	-15	1	-6	-3	6.5%	5%	-3.6
O=C1C=C(NCc2ccc(Cl)c(Cl)c2)CC1	-23	-2	-31	2	1.1%	0%	-3.2
CSCCC(=O)N(C)CC1CCN(CCc2cccc(C(F)(F)F)c2)CC1	-71	-7	-1	.	3.4%	28%	5.3
O=C(Nc1nnc([C@@H]2C[C@H](O)[C@@H](CO)O2)s1)Nc1ccccc1C(F)(F)F	1	-9	.	-2	0.0%	.	-5.1
CC(=O)C1=C(O)C(=O)N(c2ccc(Br)cn2)C1c1ccccc1F (stereo not drawn)	-2	-6	2	2	-0.1%	12%	-3.3
CN(CCC#N)C(=O)COC(=O)c1cc(Cl)cc(Cl)c1N	5	-3	-6	-2	-1.0%	11%	5.1
Cc1cc(=O)oc2cc(NC(=O)c3ccccc3Cl)ccc12	-10	1	-2	-11	-0.4%	-4%	-3.2
COc1cccc(OCC(=O)NNC(=O)c2cnccn2)c1	-4	-21	10	-15	13%	-18%	-4.5
O=C(CN(CC(=O)N1CCOCC1)S(=O)(=O)c1ccc(Br)s1)N1CCOCC1	15	8	.	-2	-2.7%	.	-2.6
COc1ccc(-c2nc3ccc(Cl)cn3c2Cc2ccccc2C(F)(F)F)cc1OC	-7	-19	.	-11	22%	.	-3.4
COc1ccc(C)cc1NC(=O)c1c([N+](=O)[O-])cnn1C	-6	-21	-7	-1	1.3%	14%	1.7
COc1ccc(CNC(=O)Cn2nc(C(F)(F)F)cc2C)cc1	-4	1	15	.	1.8%	12%	-2.9
CN(C(=O)COC(=O)c1nc(Cl)ccc1Cl)c1ccccc1	-20	0	-17	7	0.4%	18%	-6.1
O=C(COC(=O)c1ccc(Cl)cc1)NCC1CCCCC1	0	6	.	1	8.5%	.	-2.3
Cc1ccc(N(CC(=O)NN=C2CCN(C)CC2)S(=O)(=O)c2ccc(C)cc2)cc1	17	2	8	1	2.1%	2%	-3.2
Oc1ccccc1CNn1cnnc1	-21	-4	.	-1	-0.3%	20%	-3.2
COc1ccc(N2C(=O)CC(Sc3nc(C)cc(C)n3)C2=O)cc1OC (stereo not drawn)	-4	-3	-2	10	-0.9%	14%	-3.7
CCOC(=O)c1n[nH]n(-c2cc(Cl)cc(Cl)c2)c1=O	4	-5	5	21	3.3%	16%	1.6
COc1ccc(C(=O)OCC[N+]2(C)CCOCC2)cc1	-4	2	12	7	-0.3%	2%	-3.7
Cc1cccc(C)c1NC(=O)C1(N2C(=O)CC2c2ccccc2)CCCCC1 (stereo not drawn)	-9	-3	-9	-15	-2.1%	3%	-3.3
O=C(CNC(=O)c1ccccc1F)N/N=C/c1cccnc1	-29	-11	-4	-23	-0.8%	8%	-3.0
O=C(COC(=O)CCc1nc2ccccc2s1)Nc1ncc(Cl)cc1Cl	-1	-7	5	-1	1.7%	2%	-2.0
COc1cc2nc(/C=C/c3cc(OC)c(OC)c(OC)c3)sc2cc1SC	3	39	12	51	3.0%	?	-1.9
COc1cccc(OCCn2cc(C(C)=O)c3ccccc32)c1	1	0	2	-1	1.4%	-5%	5.3
CCCCCCCc1c(O)nc(SCCN(C)C)[nH]c1=O	-9	3	-1	2	0.8%	4%	-2.2
CS(=O)(=O)NN1C(=O)c2ccccc2NC1c1ccccc1O (stereo not drawn)	1	-10	-1	3	2.4%	20%	-5.1
COc1cccc(CN2CCN(C(=O)c3cccc4ccccc34)CC2)c1OC	-21	-3	17	3	-5.0%[38.3 µM]	?	2.5
O=C(COc1ccc(-n2ccnc2)cc1)Nc1cccc(Cl)c1	-4	20	3	1	0.4%	14%	4.9
CCOc1ccc(C(=O)NCc2ccco2)cc1	2	-11	-9	-3	5.0%[38.3 µM]	-21%	-0.6
CCN1CCN(CC(=O)NC2CCCCC2)C(=O)C1=O	-4	24	13	-2	1.4%	20%	-2.4
CCOC(=O)C1=C(N)n2c(s/c(=C\c3ccco3)c2=O)=C(C(=O)OC(C)C)C1c1ccco1 (stereo not drawn)	9	-15	-3	-8	5.9%	-7%	-2.9
N#Cc1nc(Cc2ccccc2)oc1N1CCCC1	-4	-4	5	0	-2.1%	-9%	-1.9
COc1cccc(CNC(=O)c2cc(COc3c(F)cccc3F)on2)c1	9	3	-4	16	1.1%	9%	5.9
CC(=O)c1cc(C#N)c(SCc2ccccc2)nc1C	-13	31	-10	28	1.4%	-17%	0.8
COc1ccc(CNS(=O)(=O)c2ccc(-n3cnnn3)c(OC)c2)cc1	-2	-1	1	6	-1.7%	4%	5.4
O=C(CN1CCN(S(=O)(=O)N2CCCCCC2)CC1)Nc1cc(Cl)ccc1Cl	7	0	1	3	-0.1%	5%	-3.2
COc1ccccc1C(=O)NCc1ccco1	0	0	6	0	-0.5%	-2%	-1.9
CCC(=O)NNC(=O)Cc1c(C)n(C(=O)c2ccc(Cl)cc2)c2ccc(OC)cc12	-5	-3	0	1	5.6%	1%	-0.1
CN(C)c1ncnc2c1ncn2C1CCCO1 (stereo not drawn)	-4	7	.	-1	0.7%	.	-4.1
COc1ccccc1NC(=O)c1cc(Br)ccc1Cl	-21	17	9	5	10%	11%	3.5
CCOC(=O)N1CCC(NS(=O)(=O)c2cc3c(cc2Br)CCN3C(=O)CC)CC1	-22	-17	.	2	1.0%	.	-0.5
CCCCN(CCCC)Cc1ccc(C(=O)NNC(=O)Nc2ccc(F)cc2)o1	-5	-5	4	4	-0.2%	22%	-2.5
O=C(NC[C@@H]1CCCO1)c1cccc2c1C(=O)c1ccc(N3CCOCC3)cc1S2(=O)=O	19	-3	.	4	-0.2%	.	7.3
CN(CC(=O)Nc1ccccc1Br)C(=O)CNC(=O)c1ccc2c(c1)OCO2	-7	4	18	3	0.8%	.	4.5
Cc1ccc(NC(=O)c2cccc(S(=O)(=O)N(C)c3ccccc3)c2)cc1S(=O)(=O)N1CCOCC1	12	-6	1	4	11%	16%	3.9
NS(=O)(=O)c1ccc(Sc2ccc3ccccc3c2)nc1	-3	-1	23	-6	1.4%	-8%	-2.1
Cc1ccc(C(=O)Nc2ccccc2C(=O)N2CCCCC2C)cc1 (stereo not drawn)	-30	-2	-14	2	-0.2%	18%	-3.0
O=C(Nc1cccc(C(F)(F)F)c1)C1C2CC3OC(=O)C1C3C2 (stereo not drawn)	-26	0	3	-1	-1.1%	-2%	1.9
CCn1cc(SCC(=O)N2CCOCC2)c2ccccc21	-3	3	-2	-5	-0.9%	-6%	-6.8
COc1ccc(-c2csc(N(CCCN(C)C)C(=O)c3ccccc3C)n2)cc1	-12	-29	6	?	1.6%	-29%	-5.6
CCCCOc1ccc(S(=O)(=O)NC(=O)C2(C)CCN2C(=O)c2cccc(F)c2)cc1 (stereo not drawn)	-4	9	.	0	-0.4%	.	-1.4
CC(Oc1ccccc1)C(=O)Nc1nnc(S(=O)(=O)N(C)c2ccccc2)s1 (stereo not drawn)	0	0	2	2	-1.1%	15%	-7.5
Cc1cc(NC(=O)C2CCCN(S(=O)(=O)c3c(C)noc3C)C2)n[nH]1 (stereo not drawn)	2	-1	7	3	0.5%	12%	0.4
COc1cc(-c2cc(C(=O)O)c3cc4c(cc3n2)OCCO4)cc(OC)c1OC	-1	5	-1	8	-4.4%[38.3 µM]	15%	-1.0
Clc1ccc2c(c1)[C@H]1OCC[C@H]1[C@@H](c1ccco1)N2	-1	-10	-5	-5	1.2%	14%	5.3
O=C(CC1Sc2ccccc2NC1=O)NCc1ccccc1 (stereo not drawn)	4	5	-4	4	3.5%	8%	-6.3

The closing 5 entries of the part before open the next one:
SMILES	D2 potentiator	Six1-Eya2 inh	TRPV1 PAM	CtBP-E1A blk	PINK1 modulator	Sfp PPTase inh	D2 agonist
CC(Oc1ccccc1)C(=O)Nc1nnc(S(=O)(=O)N(C)c2ccccc2)s1 (stereo not drawn)	0	0	2	2	-1.1%	15%	-7.5
Cc1cc(NC(=O)C2CCCN(S(=O)(=O)c3c(C)noc3C)C2)n[nH]1 (stereo not drawn)	2	-1	7	3	0.5%	12%	0.4
COc1cc(-c2cc(C(=O)O)c3cc4c(cc3n2)OCCO4)cc(OC)c1OC	-1	5	-1	8	-4.4%[38.3 µM]	15%	-1.0
Clc1ccc2c(c1)[C@H]1OCC[C@H]1[C@@H](c1ccco1)N2	-1	-10	-5	-5	1.2%	14%	5.3
O=C(CC1Sc2ccccc2NC1=O)NCc1ccccc1 (stereo not drawn)	4	5	-4	4	3.5%	8%	-6.3
Clc1ccc(SCCCCn2cncn2)cc1	1	6	-7	2	0.6%	20%	-1.3
COc1ccccc1NC(=O)CSc1nnc(C)o1	-3	-3	19	2	-1.4%	9%	-4.8
O=C(O)c1ccc(/C=C/C(=O)c2ccc3c(c2)OCCCO3)cc1	-11	5	11	4	-2.2%	-9%	-4.4
COc1ccc(NC(=O)CN2CCN(c3nc(-c4ccc(F)cc4)cs3)CC2)c(OC)c1	-17	-27	16	-18	0.3%	-6%	-2.9
CCC(C)c1ccc(S(=O)(=O)Nc2cccnc2)cc1 (stereo not drawn)	-11	0	8	.	-0.3%	4%	12
COc1ccccc1N(C)S(=O)(=O)c1ccc(C(=O)NNC(=O)c2ccccc2O)cc1	-11	-22	27	-5	-0.2%	.	-3.6

Source: PubChem BioAssay
